From PubChem
HCMV NEC inh: inhibitors of HCMV UL50-UL53 nuclear egress complex interaction; AID 1918969; inhibition, % (concentration not given with the values); HTRF UL50-UL53 interaction, normalized percent inhibition; 190,000 tested, 0.15% active;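 active means both replicates at 50% or more, plus weaker picks with an unusually low signal ratio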;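 further: stock transfer was 100 nL into about 20 µL; 0% = negative control wells and 100% = wells with untagged competitor protein; inactives centre near -12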
Sa growth inh: S. aureus growth inhibition; 170,000 tested, 0.53% active; S. aureus RN4220 growth, OD600, 20 h, 42 °C; hits give low values; relative growth, % (no concentration beside the values);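 active means growth at 42 °C up to 50% and 20 or more points under that at 30 °C, or under 10% at both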;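 further: 300 nL library stock went into each well; scaled to the means of positive and negative controls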
GIV-Gai inh: inhibitors of GIV GBA-motif binding to rat Galpha-i3. P08753. Galpha-i3/FITC-GIV peptide fluorescence polarization, 90 min; hits give low values; scaled: aluminum fluoride 0%, vehicle 100%. percent of control (FP), % (test concentration not listed). 210,000 tested, 0.42% active;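 active means replicate mean at 85% of control or lower, very high polarization wells dropped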;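 further: wells of about 15 µL received 100 nL stock; the first replicate is given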
Target sequence (P08753 whole entry, looked up): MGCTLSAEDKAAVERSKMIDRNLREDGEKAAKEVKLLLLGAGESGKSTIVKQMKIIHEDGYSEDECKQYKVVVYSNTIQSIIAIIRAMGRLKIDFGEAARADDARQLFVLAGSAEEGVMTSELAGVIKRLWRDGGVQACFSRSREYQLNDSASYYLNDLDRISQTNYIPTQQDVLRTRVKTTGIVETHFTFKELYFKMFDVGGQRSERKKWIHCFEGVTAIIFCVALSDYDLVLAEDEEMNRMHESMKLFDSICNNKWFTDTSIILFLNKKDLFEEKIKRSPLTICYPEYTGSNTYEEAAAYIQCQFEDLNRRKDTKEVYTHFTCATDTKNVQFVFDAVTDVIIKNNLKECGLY
Sa growth inh second temp: recorded beside Sa growth inh, whose call it bears; relative growth, %; measured here: growth at 30 °C;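 optical density after 20 h as mean of two plates; 100% = untreated growth and lower means inhibition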
Active calls of the source: *; · = no result given.

SMILES	HCMV NEC inh	Sa growth inh	Sa growth inh second temp	GIV-Gai inh
CCOc1cc(CNCC(c2ccc(OC)cc2)N2CCCCC2)ccc1OC(C)C(=O)N(C)C (stereo unspecified)	-14	92	85	·
O=C1C(c2ccc(F)cc2)N(Cc2ccccc2Cl)C(=O)CN1C1CCCCC1 (stereo unspecified)	·	80	85	103
CCC1=NN(C(=O)C(C)C)C(O)(C(F)(F)F)C1 (stereo unspecified)	2	83	89	100
COc1ccc(C2C(C)C3(O)CC(C#N)(C(=O)N3)C2(C#N)C#N)cc1 (stereo unspecified)	-11	95	85	·
COc1cccc(C(=O)Nc2cccc3c2C(=O)NC3=O)c1OC	-6	98	98	·
CCCNC(=O)c1cc(C)nn1-c1ccccc1	·	79	85	95
CCOc1ccc(C2CC(=O)N(Cc3ccccc3)c3c2c(C)nn3-c2nc(C)cc(C)n2)cc1 (stereo unspecified)	-2	·	·	105
Cc1ccc(CNc2nc(N)n(-c3ccccc3)n2)cc1	-7	84	81	98
CCCCN(C)c1ccc2nnc(CCC(=O)O)n2n1	-24	·	·	100
CCN1C(=O)C(=Cc2ccc(OC(F)F)cc2)C(=O)N(CC)C1=S	-17	94	88	·
CNC(=O)COc1ccc(S(=O)(=O)N2CCOCC2)cc1C	-18	96	100	100
CCCc1cc(=O)[nH]c(SCC(=O)c2cc(C)n(C)c2C)n1	-16	121	90	·
COc1cccc(-c2noc(CCCn3c(=O)[nH]c4cc5c(cc4c3=O)OCO5)n2)c1OC	-4	·	·	106
COc1ccc(N2CCN(S(=O)(=O)c3cc4c(cc3C)N(C(C)=O)CCO4)CC2)cc1	-6	·	·	109
CN=C1SC(C(=O)Nc2ccc(C)cc2Br)C(N)=C1C(=O)NCCN1CCOCC1 (stereo unspecified)	-15	103	91	·
Cc1n(CC(=O)c2ccc(F)cc2)c2ccccc2[n+]1C	·	87	85	100
CCN(CC)c1ccc(NC(=O)CN2CCN(CC(=O)Nc3ccc(Br)cc3)CC2)cc1	-34	102	94	104
COc1ccc(C(=O)CSc2nnc(-c3ccccc3)n2-c2ccccc2)cc1	-18	·	·	98
C#CCNc1cc(-c2ccccc2)nc2nncn12	18	96	88	101
Clc1ccc(OCc2nc(CSc3ccccn3)no2)c(Cl)c1	-2	111	87	100
O=C(/C=C1\SC(=O)N(CN2CCCCC2)C1=O)Nc1ccccc1	-6	111	76	97
CCOC(=O)c1c(C)n(-c2ccccc2)c2ccc(OC(=O)c3ccc(S(=O)(=O)N4CCCCC4)cc3)cc12	-15	·	·	101
CC(C)(C)OC(=O)NCCc1c[nH]c2ccccc12	3	105	96	97
Cc1cc2nc(SCC(=O)O)[nH]c2cc1C	-5	·	·	104
Cn1c(SCc2ccccc2)nnc1C1CCN(C(=O)c2ccc3c(c2)OCO3)CC1	-7	104	88	97
O=c1c2nccnc2nc(SCc2ccc(F)cc2)n1Cc1ccccc1	-47	59	37	107
CC(OC(=O)c1cc(S(=O)(=O)N(C)C)ccc1N1CCCC1)C(=O)N1CCc2ccccc21 (stereo unspecified)	-4	100	86	·
O=C(CCn1c(=O)sc2cc(S(=O)(=O)N3CCc4ccccc43)ccc21)N1CCCC1	-8	·	·	108
CCc1nc2ccccc2c(C)c1C(=O)O	-12	79	95	·
NC(=O)COc1ccc(Cl)cc1	-32	111	83	103
CCOc1ccc(OCCC(=O)O)cc1	-9	112	91	·
CC(C)c1ccc2c(ccc[n+]2C)c1	-80	113	86	103
O=C(COC(=O)c1ccc(Br)cc1)c1ccc(Br)cc1	·	90	91	102
CC1=NN(c2ccccc2)C(=O)/C1=C\N1CCC(C)CC1	-5	106	103	103
Cc1nn(CCC#N)cc1C=C1C(=O)NC(=O)NC1=O	-31	103	91	·
O=C(O)c1ccccc1C(=O)Cc1ccc(I)cc1	-3	145	96	·
CN=C(Nc1ccc(F)cc1)c1ccccc1	-26	100	84	·
COc1ccc(-c2csc(N3N=C(C)C(C(c4ccc(Cl)cc4)C(C#N)C(N)=O)C3=O)n2)cc1 (stereo unspecified)	-24	63	18	·
Cc1cccc(Cn2cnc3c(cnn3-c3ccc(Cl)cc3)c2=O)c1	-6	106	91	108
COc1ccc(NCc2ccc(OCC(N)=O)c(Cl)c2)cc1	-32	93	92	105

Ordered by SMILES length (lowest first): five of the compounds above.
SMILES	HCMV NEC inh	Sa growth inh	Sa growth inh second temp	GIV-Gai inh
NC(=O)COc1ccc(Cl)cc1	-32	111	83	103
O=C(COC(=O)c1ccc(Br)cc1)c1ccc(Br)cc1	·	90	91	102
CC1=NN(c2ccccc2)C(=O)/C1=C\N1CCC(C)CC1	-5	106	103	103
CC(OC(=O)c1cc(S(=O)(=O)N(C)C)ccc1N1CCCC1)C(=O)N1CCc2ccccc21 (stereo unspecified)	-4	100	86	·
COc1ccc(-c2csc(N3N=C(C)C(C(c4ccc(Cl)cc4)C(C#N)C(N)=O)C3=O)n2)cc1 (stereo unspecified)	-24	63	18	·

Additional compounds follow.
SMILES	HCMV NEC inh	Sa growth inh	Sa growth inh second temp	GIV-Gai inh
Cc1cccc(CCNC(=O)C2CCC(CNS(=O)(=O)c3c(C)cc(C)cc3C)CC2)c1 (stereo unspecified)	·	124	86	103
Cc1cc(CN2CCOCC2)c(O)c(C2(C)CCCCC2)c1	-3	96	75	99
COCCn1c(C)cc(C(=O)CSc2nnc(-c3ccc4c(c3)OCO4)o2)c1C	-1	95	86	·
O=S(=O)(Cc1ccccc1)CC(O)COc1ccc(F)cc1 (stereo unspecified)	-1	97	84	99
O=C(NCc1nc(-c2ccc(Cl)cc2)no1)C12CC3CC(CC(C3)C1)C2	-15	99	77	98
Cc1nc2sc3ccccc3n2c(=O)c1S(=O)(=O)Nc1ccc(N2CCOCC2)cc1	-16	·	·	113
Cn1nnnc1SCCCNCc1cc(Br)ccc1OCc1ccccc1F	-32	111	68	104
Cc1ccc(S(=O)(=O)c2cn(CC(=O)Nc3ccc(Cl)cc3)c3ccc(F)cc3c2=O)cc1C	-16	105	89	104
Cc1cccc(-c2nc3c4ccccc4n(Cc4cccc(Cl)c4)c(=O)n3n2)c1	·	125	100	103
COc1ccc2c(c1)CCc1c(C(=O)Nc3ccc(OC)cc3OC)noc1-2	34	89	92	110
Nc1nc(SCC(=O)c2cc(-c3ccccc3)no2)ncc1C(=O)O	-12	74	76	110
Cc1nc(SCc2cc(=O)n3c(C)csc3n2)n[nH]1	-14	·	·	97
CC1CCC(C(C)C)C(OC(=O)CSc2nnnn2C)C1 (stereo unspecified)	-20	93	92	·
C=CCn1c2nc3ccccc3nc2c2c(=O)n(C3CCCC3)cnc21	-94	97	69	100
CC(C)c1ccccc1N=C1SCCN1C1CCS(=O)(=O)C1 (stereo unspecified)	-8	99	90	·
Cc1cc(C)n(C(C)CC(=O)Nc2ccc3c(c2)OCO3)n1 (stereo unspecified)	-31	104	75	100
O=C(COC(=O)c1cncc(Br)c1)NCc1ccccc1	-17	132	89	·
CC(=O)N1CCN(c2ccc(OC(=O)c3ccc(Oc4cc(Cl)cc(Cl)c4)o3)cc2)CC1	-8	110	85	106
CC(C)n1c(=O)c(=O)[nH]c2cc(-c3noc(Cc4ccc(Br)cc4)n3)ccc21	-2	·	·	105
COc1ccc(OCCNC(=O)c2ccc3snnc3c2)cc1	-13	98	54	103
N#C/C(=C\c1ccc(Cl)cc1Cl)c1nc(-c2cccc(Cl)c2)cs1	-28	115	91	106
O=C(CSc1nc2c([nH]c3ccccc32)c(=O)n1-c1cccc(Cl)c1)NCc1ccccc1	·	96	83	98
Cc1nnc2sc(SCC(=O)Nc3nccs3)nn2c1=O	-16	107	92	105
CCN(CC)c1ccc2cc(-c3nnc(Nc4ccc(Br)cc4)s3)c(=O)oc2c1	-19	·	·	170
COCCn1c(C)cc(/C=N/n2c(Cc3cccc4ccccc34)n[nH]c2=S)c1C	0	110	103	·
COc1cc(C2CC(=O)Nc3ccccc3S2)cc(OC)c1OC (stereo unspecified)	-2	96	92	102
COc1ccc2cc(C(=O)N3CCN(C(=O)c4nsc5ccc(C)cc45)CC3)[nH]c2c1	-30	·	·	102
O=C(CC(c1ccccc1)c1ccccc1)NCCO	4	106	103	101
O=C(CCCCn1c(=O)c2ccccc2n(Cc2ccc(Cl)cc2)c1=O)NCc1ccccc1Cl	-19	107	85	100
CCOC(=O)Cc1ccccc1C(=O)OC	-13	107	87	·
S=c1[nH]nc(C2OCCc3ccccc32)o1 (stereo unspecified)	-5	·	·	103
CCn1c(SC)nnc1C1CCCN(CC(=O)NCc2ccc3c(c2)OCO3)C1 (stereo unspecified)	-3	93	79	97
Cc1cc(C)nc(NC(C)(C)C(=O)O)n1	-4	124	102	106
O=c1cc(CSc2n[nH]c(=O)n2Cc2ccco2)c2ccc(O)cc2o1	-63	91	86	100
CC(=O)n1cc(/C=N/NC(N)=O)c2ccccc21	-31	87	91	100
N=CC1=C(O)CC(c2ccccc2)CC1=O (stereo unspecified)	4	87	95	·
Cc1cccc(C)c1NC(=O)CN1C(=O)c2cccc3cccc1c23	·	107	88	101
COc1ccc(-n2ncc3c2ncn2nc(-c4ccc(OC)c(OC)c4)nc32)cc1	-5	98	84	101
O=C(CCn1c(SCc2ccc(F)cc2)nc2c(sc3ccccc32)c1=O)NCC1CCCO1 (stereo unspecified)	·	102	63	104
Cc1ccc(C)c(C(=O)Cn2nc3n(C(C)C)c(=O)c4ccc(C(=O)NCC(C)C)cc4n3c2=O)c1	-41	·	·	109
CCOC(=O)C1CCCc2c1[nH]c1c(C(=O)NCc3ccccc3)cccc21 (stereo unspecified)	-29	·	·	102
O=C(Cn1c(Cc2ccccc2)nc2sc3c(c2c1=O)CCCC3)Nc1ccc(F)cc1F	10	·	·	103
Cn1nnnc1SCCOc1ccc(C#N)cc1	-7	94	93	·
CCc1ccc2oc(C(=O)NCCc3nc(-c4ccccc4)no3)c(C)c2c1	-22	·	·	106
COc1ccc(C(=O)CSC#N)cc1OC	11	51	34	·
CCOC(=O)CCc1c(C)nc2nc(CNc3ccccc3OCC)[nH]n2c1=O	-21	·	·	106
COc1ccc(-c2nn3c(=O)cc(CNC(=O)Nc4ccc(OC)cc4OC)nc3s2)cc1	-30	·	·	103
Cc1ccc(-c2ccc(=O)[nH]n2)cc1S(=O)(=O)N1CCCCC1	-10	·	·	99
Cc1cc(C(=O)N2CCN(C(c3ccccc3)c3ccccc3)CC2)n[nH]1	-4	91	83	99
CCOC(=O)c1cc2ccsc2n1CC(=O)Nc1c(C)cc(C)cc1C	-31	·	·	106
CC(C#N)(NC(=O)CSc1ccc(S(=O)(=O)N2CCCCC2)cn1)C1CC1 (stereo unspecified)	19	103	106	·
Cc1ccc(/C=C/C(O)=C2/C(=O)N(C)C3(C)CC2c2ccccc2O3)cc1 (stereo unspecified)	·	100	90	108
CCc1cnc2c(c1SCC(=O)Nc1ccc(C(=O)OC)cc1)c(=O)n(C)c(=O)n2C	·	137	88	108
O=C(Nc1nccs1)c1cc(-c2ccccc2)nc2ccccc12	-26	93	91	·
Cc1ccccc1-n1nnnc1SCC(C)C	-20	100	100	·
CC1=C(C(=O)Nc2ccccc2)C(c2ccc(O)cc2)n2nc(-c3ccc(Cl)cc3)nc2N1 (stereo unspecified)	-34	117	89	106
Cn1cnnc1SC/C=C/c1ccccc1	1	132	88	·
CCn1cc(C(=O)N2CCN(c3ccccc3OC)CC2)c(=O)c2cc(S(=O)(=O)N3CCC(C)CC3)ccc21	-29	101	87	101
Cc1ccc2[nH]c(=O)c3cc(C(=O)N4CCCc5ccccc54)sc3c2c1	1	99	82	106
COc1cccc(N=c2oc3cc(O)ccc3cc2C(=O)NCC2CCCO2)c1 (stereo unspecified)	-41	88	84	109

(next part)
SMILES	HCMV NEC inh	Sa growth inh	Sa growth inh second temp	GIV-Gai inh
O=C(COC(=O)c1cc(O)c(O)c(O)c1)NC1CCCc2ccccc21 (stereo unspecified)	-8	77	58	·
COc1ccc(NC(=O)C2CCN(S(=O)(=O)c3cc(-c4noc(C)n4)ccc3C)CC2)cc1	·	107	100	100
CCNc1c(NC(=O)c2ccccc2C)c(=O)oc2ccccc12	-14	97	91	103
Cc1cccc(NS(=O)(=O)c2cnc[nH]2)c1	-2	115	91	95
COc1cccc(C(C#N)N2CCCCC2)c1O (stereo unspecified)	-8	90	65	103
CC(=O)N1CCOc2ccc(S(=O)(=O)N3CCN(Cc4ccccc4)CC3)cc21	-17	·	·	107
CS(=O)(=NS(=O)(=O)c1ccc(-c2ccccn2)s1)c1ccc(Cl)cc1 (stereo unspecified)	-58	94	87	103
CCOc1cc(/C=C(\C#N)C(=O)Nc2ccc(C)cc2)ccc1OCc1cc(=O)n2nc(CC)sc2n1	-11	98	84	96
CCOC(=O)c1nnc(-c2ccccc2)o1	·	106	87	101
CNC(=O)COC(=O)c1cccc(S(=O)(=O)N(C)c2ccc(C)cc2)c1	-12	96	96	·

Gathered by group: the compounds so far containing a COOH group.
SMILES	HCMV NEC inh	Sa growth inh	Sa growth inh second temp	GIV-Gai inh
CCCCN(C)c1ccc2nnc(CCC(=O)O)n2n1	-24	·	·	100
Cc1cc2nc(SCC(=O)O)[nH]c2cc1C	-5	·	·	104
CCc1nc2ccccc2c(C)c1C(=O)O	-12	79	95	·
CCOc1ccc(OCCC(=O)O)cc1	-9	112	91	·
O=C(O)c1ccccc1C(=O)Cc1ccc(I)cc1	-3	145	96	·
Nc1nc(SCC(=O)c2cc(-c3ccccc3)no2)ncc1C(=O)O	-12	74	76	110
Cc1cc(C)nc(NC(C)(C)C(=O)O)n1	-4	124	102	106
